PABP FP inh = blocks human PABP binding to poly(A) RNA. P11940. fluorescence polarization. inhibition, % at 35 µM. 1% of 290,000 active. AID 2014;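 active means 50% or more with normal probe brightness, or confirmed in later tests; about a fifth of its hits are not listed in these tables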;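 further: calls also rest on retests at 20 µM and on dose response follow-up; controls were probe without protein and protein plus probe with vehicle; some compounds called inactive have numbers as strong as hits; many hits fall short of the cut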
eIF4H FP inh = inhibitors of RNA binding by human eIF4H; 0.94% of 290,000 active; inhibition, % at 35 µM; eIF4H fluorescence polarization binding assay; Q15056; AID 2012;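 active means 50% or more with normal probe brightness, or confirmed in later tests; about a fifth of its hits are not listed in these tables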;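 further: calls also rest on retests at 20 µM and on dose response follow-up; 0% = protein and probe with vehicle and 100% = probe without protein; strong numbers were not always called active; many hits fall short of the cut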
HIV Env fusion = HIV envelope-mediated fusion inhibition; HeLa-JRFL Env/CEM21 cell fusion, luciferase; AID 651610; inhibition, % at 12.3 µM; 1.1% of 360,000 active;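 active means mean replicate inhibition score of at least 50 and every replicate individually at or above 50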;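 further: 0% = plate neutral controls and 100% = maraviroc near 300 nM; one replicate is shown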
Rce1 inhib = blocks yeast Ras-converting enzyme; yeast membranes, quenched prenylated peptide cleavage fluorescence; calls only; 0.27% of 290,000 active; AID 2563;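 active means fall in fluorescence gain of 50% or more versus controls, with final raw signal at or below 3038400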;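 further: plate controls were neutral control wells for no effect and wells lacking membranes for full effect; tested at 10 µM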
Target sequence (Q03530 whole entry, looked up): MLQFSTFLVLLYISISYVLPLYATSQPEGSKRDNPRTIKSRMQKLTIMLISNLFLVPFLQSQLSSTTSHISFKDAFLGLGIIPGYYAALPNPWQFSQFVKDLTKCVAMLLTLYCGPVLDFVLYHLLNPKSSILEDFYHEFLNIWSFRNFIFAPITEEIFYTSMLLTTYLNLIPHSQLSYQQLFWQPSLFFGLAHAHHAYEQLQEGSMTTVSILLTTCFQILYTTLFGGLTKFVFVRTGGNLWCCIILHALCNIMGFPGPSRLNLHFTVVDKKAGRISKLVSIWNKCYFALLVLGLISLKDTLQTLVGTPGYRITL
CSC inhib = cancer stem cell inhibition. inhibition, % at 7.5 µM. 1.1% of 300,000 active. AID 2717. cancer stem cell-like cells viability, luminescence;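 active means mean at 75% or more and at least half the replicates too; tested in HMLE shEcad cells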;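 further: 0% = median of negative and 100% = median of positive control wells; the first replicate is given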
MT1-MMP act inh = inhibitors of human MT1-MMP activation. 0.061% of 360,000 active. HT1080 RFP-PRO-GFP cells, GFP/RFP ratio fluorescence, overnight; percent of plate control window, DMSO zero. GFP/RFP ratio change, % at 20 µM. P50281;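 active means GFP/RFP ratio change of at least 30% with cell ATP level not reduced by more than half and red fluorescence within 50% of control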; further: strong numbers were not always called active
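Assay system – RFP-PRO-GFP reporter HT1080 cells · Compound dosing – single dose of 20 µM compound, 1% DMSO final · Incubation – overnight compound exposure at 37 °C · Measure – GFP/RFP fluorescence ratio · Benchmarks – DMSO wells and RFP-L50D-GFP cells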
Yeast UUG start = modulators of start codon recognition fidelity in yeast; S. cerevisiae UUG-firefly luciferase reporter, luminescence/redox ratio; activity score, % at 18.7 µM; 0.13% of 350,000 active;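 active means replicate mean at a twofold rise or more, about +100% in these data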;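 further: firefly luciferase made from a UUG start codon reports start codon fidelity; reporter light over untreated wells divided by growth signal over untreated wells; some hits fall short of that in this replicate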
MT1-MMP act inh RFP = recorded beside MT1-MMP act inh, whose call it bears; RFP signal change, %; measured here: RFP expression control read;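 0 = vehicle wells; hits needed this value within 50% of zero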
* = called active by the depositor; i = inactive; nt = not tested or not shown. This is a subset. The share of hits here may be higher or lower than overall.

SMILES | PABP FP inh | eIF4H FP inh | HIV Env fusion | Rce1 inhib | CSC inhib | MT1-MMP act inh | MT1-MMP act inh RFP | Yeast UUG start
Cn1c(=O)oc2cc(S(=O)(=O)NCc3ccco3)ccc21 | 12 | 2 | -38 | i | nt | -1 | 3 | -26
O=S(=O)(/N=C(/Nc1ccccc1)C(F)(F)F)c1ccccc1 | -8 | -14 | 18 | i | 11 | 4 | 6 | nt
Cc1cc(C)cc(NC(=O)Nc2ccccc2N2CCCCC2)c1 | -5 | 2 | 15 | i | 44 | -1 | -6 | -18
Cc1ccc(Cn2ncc3c(NCCCN4CCOCC4)ncnc32)cc1 | -9 | -14 | nt | nt | -25 | 12 | 2 | -8
COc1ccc(CNC(=O)CN(Cc2ccc(F)cc2)C(=O)c2csnn2)cc1 | -7 | -8 | -8 | i | -4 | -1 | 2 | -4
COc1cccc(NC(=O)c2ccc(CN3CCc4ccccc4C3)cc2)c1 | -6 | -12 | 14 | i | -9 | 5 | -24 | -17
O=CN1CCN(S(=O)(=O)c2ccc(S(=O)(=O)NC3CCCCC3)cc2)CC1 | 4 | -1 | -4 | i | -1 | -3 | -5 | -33
Cc1nnc(NC(=O)CSCc2c(C)noc2C)s1 | nt | nt | -7 | i | -10 | -2 | 4 | -14
CS(=O)(=O)Nc1cccc(C(=O)CC2(O)C(=O)Nc3ccccc32)c1 (stereo not drawn) | -6 | -4 | -28 | i | -16 | -2 | 7 | 4
CCN1C(=O)/C(=C/C=C2/Sc3ccc4ccccc4c3N2CCO)SC1=S | 4 | 21 | -24 | i | -9 | 29 | 83 | -16
O=C1C(=Cc2ccccc2[N+](=O)[O-])Cc2ccccc21 | nt | nt | -74 | nt | nt | -32 | 1 | -19
O=C(NN1C(=O)/C(=C\c2cccnc2)SC1=S)C(c1ccccc1)c1ccccc1 | 4 | -8 | 6 | i | 7 | 0 | 2 | -6
Cc1cc(C(=O)NNc2ccccc2F)no1 | -3 | 1 | 3 | i | 52 | 1 | 2 | -18
COc1cccc(C2=NO[C@@H]3C(=O)N(c4ccc5c(c4)OCCO5)C(=O)[C@H]23)c1OC | -3 | -5 | -79 | i | -9 | 0 | 10 | -31
CC1CC1C(=O)N(C)CC(=O)Nc1ccccc1Br (stereo not drawn) | nt | nt | -36 | nt | -14 | -2 | -1 | -17
O=C(/C=C/c1ccc(Cl)cc1)NC1CCS(=O)(=O)C1 (stereo not drawn) | 9 | 17 | -13 | i | nt | 2 | 2 | nt
COc1ccc(NC(=O)c2cc(-c3cc(C)cc(F)c3)n[nH]2)cc1OC | nt | nt | 10 | nt | nt | -1 | 3 | -7
Cc1ccccc1OCc1nc2ccccc2c(=O)n1NC(=O)c1ccco1 | 2 | 8 | nt | i | -12 | -1 | 2 | -4
Cc1ccc(C(=O)CNc2ccc(Cl)cc2)cc1 | 5 | 0 | -7 | i | nt | 4 | 3 | -10
COc1ccccc1/C=C1\SC(=S)N(CCC(=O)NNC(=O)c2ccccc2OC)C1=O | 10 | -6 | 20 | i | 19 | -3 | -1 | nt

4 entries drawn at random from those above:
SMILES | PABP FP inh | eIF4H FP inh | HIV Env fusion | Rce1 inhib | CSC inhib | MT1-MMP act inh | MT1-MMP act inh RFP | Yeast UUG start
Cc1ccccc1OCc1nc2ccccc2c(=O)n1NC(=O)c1ccco1 | 2 | 8 | nt | i | -12 | -1 | 2 | -4
COc1ccc(CNC(=O)CN(Cc2ccc(F)cc2)C(=O)c2csnn2)cc1 | -7 | -8 | -8 | i | -4 | -1 | 2 | -4
Cc1ccc(C(=O)CNc2ccc(Cl)cc2)cc1 | 5 | 0 | -7 | i | nt | 4 | 3 | -10
O=C(NN1C(=O)/C(=C\c2cccnc2)SC1=S)C(c1ccccc1)c1ccccc1 | 4 | -8 | 6 | i | 7 | 0 | 2 | -6

Continuation:
SMILES | PABP FP inh | eIF4H FP inh | HIV Env fusion | Rce1 inhib | CSC inhib | MT1-MMP act inh | MT1-MMP act inh RFP | Yeast UUG start
CCOC(=O)CC1C(=O)NCCN1C(=O)c1c(Cl)cccc1Cl (stereo not drawn) | 7 | -7 | 0 | i | nt | 2 | 6 | -8
CCCCn1c(Cc2ccccc2)nnc1SCC(=O)N1CCOCC1 | 15 | 7 | -49 | i | -11 | 2 | 5 | -7
Cc1ccc(OCC(=O)NNC(=O)c2ccc(NC(=O)C3CC3)cc2)c(C)c1 | 0 | 0 | 5 | i | 0 | -1 | -2 | -8
Nc1c(NCCN2CCOCC2)c2ccccc2oc1=O | -7 | 4 | nt | i | nt | 2 | 7 | -18
Cc1ccccc1-c1nc(CS(=O)(=O)CC(=O)NCCCN2C(C)CCCC2C)c(C)o1 (stereo not drawn) | -16 | 5 | 21 | i | 8 | 4 | 4 | -9
CN(C)c1ccc(C2Nc3ccccc3C(=O)N2CCCN2CCOCC2)cc1 (stereo not drawn) | 3 | -12 | 12 | i | 2 | 0 | 2 | -36
COc1cccc(N=C(N)N=C(N)N)c1 | 1 | -6 | 2 | i | -16 | nt | nt | -12
c1ccc(-c2noc(CCC3CCCC3)n2)cc1 | -2 | -5 | -15 | i | -2 | -5 | 2 | -12
O=C(CN1CCOCC1)Nc1ncc(Cc2cccc(Cl)c2Cl)s1 | 1 | 3 | -75 | i | 7 | -2 | -5 | nt
O=C(O)C1=C[C@@H](c2ccc(C(F)(F)F)cc2)C[C@@H](OCCCCO)O1 | nt | nt | 11 | i | -9 | 0 | 1 | -5
O=C(NCc1cccnc1)c1cccc(S(=O)(=O)N2CCCCC2)c1 | 1 | -4 | -8 | i | -7 | 2 | -4 | -13
COc1cccc(NC(=S)N(CCCN2CCCC(C)C2)Cc2cccs2)c1 (stereo not drawn) | 8 | 2 | -12 | i | 2 | 3 | 5 | nt
CSc1ccc(/C=N/NC(=O)CN2CCN(Cc3ccccc3)CC2)cc1 | -2 | 1 | 2 | i | -6 | -2 | -1 | nt
CCNC(=O)N1c2ccc(OC)cc2C(C)=CC1(C)C | 2 | -3 | -25 | nt | -15 | -2 | 3 | -15

A draw from above in order of molecular weight, descending.
SMILES | PABP FP inh | eIF4H FP inh | HIV Env fusion | Rce1 inhib | CSC inhib | MT1-MMP act inh | MT1-MMP act inh RFP | Yeast UUG start
Cc1ccccc1-c1nc(CS(=O)(=O)CC(=O)NCCCN2C(C)CCCC2C)c(C)o1 (stereo not drawn) | -16 | 5 | 21 | i | 8 | 4 | 4 | -9
c1ccc(-c2noc(CCC3CCCC3)n2)cc1 | -2 | -5 | -15 | i | -2 | -5 | 2 | -12
COc1cccc(N=C(N)N=C(N)N)c1 | 1 | -6 | 2 | i | -16 | nt | nt | -12
